miR-21 FLuc = miR-21 reporter, rising signal; HeLa miR-21 FLuc reporter, luciferase, 48 h; AID 2288; 340,000 tested, under 10 active; Potency, µM (series often up to 38.3 µM), inactives show at the top dose reporter change, positive = more light; active = well fitted rising curve with a large enough effect; inconclusive = small, poorly fitted or top-dose-only effect; inactive = no such curve, though single readings can be large or run the other way;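 also: % of control where 0% means no effect; miR-21 action dims this reporter so a rising signal means less miR-21 action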
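HeLa miR-21-FLuc reporter line, endogenous miR-21; 2000 cells/well in DMEM/10% FBS; compound titration up to ~40uM final, 48 h, 37 degree Celsius; luciferase detection reagent, 15 min lysis, CCD luminescence.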
Rango dissoc inh = inhibition of RanGTP-driven Rango-importin beta dissociation | O95149+P62826 | Biochemical FRET Rango-importin beta, RanGTP-induced dissociation | Potency, µM (highest dose often 46.1 µM), inactives show top-dose activity change, negative = inhibition | hit rate 0.071% among 340,000 | AID 540253; active means falling FRET ratio curve, often poorly fitted, with flat reads before Ran was added; inconclusive means other falling curves, or compound fluorescence or quenching; inactive means flat or rising ratio curve;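 also: potency is read from the fitted curve at half-maximal effect; % of control where 0% means no effect; nearly all actives have a fitted effect of over 45% in size; -100% = wells without RanGTP and RCC1; the record marks most hits as doubtful in a second field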
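Rango/importin beta premix (0.1/0.25 uM final), PBS + 1 mM DTT + 0.02% Tween-20 + 0.1% BSA; cpd 5 min RT; FRET pre-read; + RanGTP-RCC1 (0.6 uM Ran, 2 mM GTP, 0.2 uM RCC1); 45 min RT; FRET post-read, ex 430, em 486/530 nm.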
Rango complex inh = Rango-importin beta binding inhibition; Q14974; Rango CFP/YFP FRET sensor + importin beta, 45 min; hit rate 0.031% among 340,000; Potency, µM (doses to about 92.2 µM), for inactives: top-dose inhibition of complex formation; AID 540263; active = rising FRET ratio curve, often small or poorly fitted; inconclusive = mostly compound fluorescence or quenching in the first reads; inactive = flat curves in all reads;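 also: potency is read from the fitted curve at half-maximal effect; 0% = DMSO wells and 100% = buffer wells lacking importin beta; nearly all actives have a fitted effect of over 15% in size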
Target sequence (Q14974 whole entry, looked up): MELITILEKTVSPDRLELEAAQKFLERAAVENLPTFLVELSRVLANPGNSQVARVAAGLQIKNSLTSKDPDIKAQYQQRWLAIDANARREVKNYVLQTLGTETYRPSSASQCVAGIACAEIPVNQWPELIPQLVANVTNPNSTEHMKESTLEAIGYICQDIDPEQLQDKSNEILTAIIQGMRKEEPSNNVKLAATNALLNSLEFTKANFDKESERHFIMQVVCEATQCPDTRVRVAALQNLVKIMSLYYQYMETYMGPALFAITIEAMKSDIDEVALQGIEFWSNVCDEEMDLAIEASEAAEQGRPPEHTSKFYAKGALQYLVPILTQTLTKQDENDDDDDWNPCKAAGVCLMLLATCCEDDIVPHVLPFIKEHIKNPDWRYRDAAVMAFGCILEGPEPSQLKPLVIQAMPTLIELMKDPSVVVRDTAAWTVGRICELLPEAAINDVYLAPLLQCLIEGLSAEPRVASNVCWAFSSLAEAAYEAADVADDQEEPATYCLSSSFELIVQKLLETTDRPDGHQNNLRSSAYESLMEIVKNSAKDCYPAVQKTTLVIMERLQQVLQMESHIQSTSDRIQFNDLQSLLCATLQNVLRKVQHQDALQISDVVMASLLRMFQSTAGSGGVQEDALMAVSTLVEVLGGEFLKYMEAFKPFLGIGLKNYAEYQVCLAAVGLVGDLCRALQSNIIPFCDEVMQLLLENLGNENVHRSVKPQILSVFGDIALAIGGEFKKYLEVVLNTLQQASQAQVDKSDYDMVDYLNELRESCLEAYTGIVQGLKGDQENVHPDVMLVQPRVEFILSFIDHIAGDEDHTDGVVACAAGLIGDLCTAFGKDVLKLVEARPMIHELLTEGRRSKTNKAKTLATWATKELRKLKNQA
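Inhibition scored from the CFP 486 nm/YFP 530 nm FRET ratio 45 min after adding 0.125 microM importin beta to 50 nM Rango biosensor preincubated 5 min with compound (room temperature, PBS with DTT, Tween-20, BSA). No-importin wells as positive control.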
GLA inh pH 4.5 = blocks human alpha-galactosidase A at pH 4.5 | P06280 | purified enzyme, 4-MU-alpha-Gal fluorescence, pH 4.5 | activity change, negative = inhibition, % at 105 µM | 230,000 tested, under 10 active | AID 1467; inconclusive = small, poorly fitted or top-dose-only inhibition, or a rising curve; inactive = flat fitted curve, though single readings scatter; no compound was filed as active;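 also: 0% = full activity with enzyme and -100% = basal without enzyme; dose as in the result columns while the protocol names 77 µM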
* hit, by the source's call; ? = inconclusive; · = not tested or not shown; & = joins results of further samples.

SMILES | miR-21 FLuc | Rango dissoc inh | Rango complex inh | GLA inh pH 4.5
COc1ccc(OC)c(NC(=O)CCCCCn2nnc3ccccc3c2=O)c1 | -1% | -10% | 1.3% | ·
O=C(NC(NC(=S)Nc1c(Cl)cccc1Cl)C(Cl)(Cl)Cl)OCc1ccccc1 (stereo unspecified) | 25% | 1% | 0.1% | ?
COc1ccc(CNC(=O)NCCc2c[nH]c3ccccc23)cc1 | 0% | -6% | -0.3% | ·
Cc1ccccc1NC(=O)C(NS(=O)(=O)c1ccc2c(c1)c(=O)n(C)c(=O)n2C)c1ccccc1 (stereo unspecified) | -1% | 0% | -1.4% | 2
CCC(=O)N1N=C(c2c(O)n(C)c(=O)n(C)c2=O)CC1c1ccccc1 (stereo unspecified) | 5% | -15% | -1.8% | -3
COc1ccc(-c2sc3cc4c(cc3c2C#Cc2ccc(N)cc2)OCO4)cc1 | · | -26% | ? | ·
CCN1C(=O)[C@H]2[C@H]3CN=C(SCc4ccc(C#N)cc4)N3[C@@](C)(C(=O)OC)[C@H]2C1=O | · | -11% | 0.6% | ·
Fc1ccc(CNC(=S)Nc2ccccc2Cl)cc1 | -6% | 12% | -2.1% | 2
O=C1CC2(CCN(C(=O)c3c(F)cccc3Cl)CC2)Oc2ccccc21 | · | -23% | 0.7% | ·
CCc1cccc(OCC2Cn3c(nc4c3c(=O)n(C)c(=O)n4C)O2)c1 (stereo unspecified) | 0% | 35% | -0.5% | ·
Cc1nc2ccccc2c(=O)n1/N=C1\C(=O)N(C)c2ccccc21 | 3% | · | · | 3
Cc1noc(/C=C/N(C)C)c1S(=O)(=O)N1CCCC(C(=O)NC2CCCCC2C)C1 (stereo unspecified) | 3% | -13% | ? | 2
O=C(CSc1ccc2c(c1)OCCO2)N1CCN(c2ccccc2O)CC1 | · | 0% | -0.5% | ·
NS(=O)(=O)c1ccc(NC(=S)NNC(=O)c2cccs2)cc1 | -31% | 8% | ? | 11
CCOC(=O)N1CCN(c2c(NC3CCN(Cc4ccccc4)CC3)c(=O)c2=O)CC1 | 0% | 14% | 4.2% | -1
COCCNC(=O)Cn1cc(S(=O)(=O)N2CCN(c3ccccc3F)CC2)c2ccccc2c1=O | -4% | 4% | -0.2% | -12
COC(=O)c1c(O)ccc(Oc2ccccc2)c1C(=O)OC | -1% | -2% | -2.8% | 6
Cc1sc2ncnc(OCC(=O)NCC3CCCO3)c2c1C (stereo unspecified) | 1% | -4% | -0.3% | -4
O=C(CSc1nc2c(c(=O)n1-c1ccccc1)SCC2)NCC1CCCO1 (stereo unspecified) | -1% | -1% | 0.2% | 3
CC(=O)N1CCN(c2cc(N3CCc4ccccc4C3)c(F)cc2[N+](=O)[O-])CC1 | -6% | 2% | 0.3% | -6
CC(C)c1ccc(NC2CCCN(C(=O)CCN3CCCCO3)C2)cc1 (stereo unspecified) | 0% | -8% | 5.6% | ·
COc1nc(NCCc2ccc(OC)c(OC)c2)nc(Nc2ccccc2)n1 | -8% | -5% | 2.0% | ·
Cc1ccc(OCC(=O)NC(=S)Nc2ccc3c4c(cccc24)CC3)cc1 | 0% | -2% | 0.0% | -1
O=C(OC1CCOC1=O)c1ccc(NS(=O)(=O)c2cccs2)cc1 (stereo unspecified) | -1% | 22% | -2.8% | 8
CCOC(=O)c1ccc(C(=O)NNC(=O)C2CC=CCC2)cc1 (stereo unspecified) | · | 10% | 0.9% | ·
COc1ccc(CNC(=O)COC(=O)CN2C(=O)C(C)Oc3ccc(C)cc32)cc1 (stereo unspecified) | 2% | 1% | -0.4% | ·
COc1cc2nc(CN3CCN(S(=O)(=O)c4ccccc4C(F)(F)F)CC3)[nH]c(=O)c2cc1OC | · | -9% | 1.0% | ·
COc1ccc(NC(=O)c2ccc3c(c2)OCO3)cc1S(=O)(=O)N1CCOCC1 | · | -4% | 0.7% | ·
CCC(C)(C)C1CCc2[nH]nc(C(=O)NC3CCCCC3)c2C1 (stereo unspecified) | · | 1% | -0.9% | ·
O=C(Cn1cc([N+](=O)[O-])nc1[N+](=O)[O-])N1CCN(c2ccccc2)CC1 | 27% | -28% | -4.0% | -11
CCOC(=O)c1sc(C)c2c1NC(c1ccc(N(C)C)cc1)NC2=O (stereo unspecified) | -4% | ? | ? | 6
Cc1onc(-c2c(Cl)cccc2Cl)c1-c1nc2cc(Cl)ccc2c(=O)o1 | 1% | 42% | 0.8% | -1
Nc1ccc2oc(-c3ccccc3Cl)cc(=O)c2c1O | -102% | -8% | -0.9% | -2&-7
Cc1nn(-c2ccccc2)c(C)c1NC(=O)COC(=O)c1ccc(Cl)c(S(N)(=O)=O)c1 | · | -15% | -3.1% | ·
CCCCn1ccnc1C(=O)c1cccc(S(=O)(=O)N2c3ccccc3CC2C)c1 (stereo unspecified) | 7% | -11% | 0.0% | -21
CCOc1ccccc1NC1c2ccccc2C(=O)N1Cc1ccco1 (stereo unspecified) | -12% | -3% | 1.2% | -12
COc1cc(/C=N/Nc2nc3ccccc3[nH]2)cc(Br)c1OCC(=O)N(C)C | -14% | -10% | -0.9% | -10
CCOc1ccc(CNC(=O)CCSCc2ccccc2F)cc1OC | -3% | 2% | 0.1% | -7
N#Cc1ccc(/C=N/NC(=O)c2cc(-c3cccs3)nc3ccccc23)cc1 | 8% | -11% | -4.1% | -8
O=C(NCc1ccccc1)OCCN1CCN(Cc2ccccc2)CCC1=O | -17% | 1% | -2.1% | -10&2
Cc1cc(=S)nc(-c2ccccn2)[nH]1 | 4% | 5% | 0.2% | 0
CCOc1ncccc1C(=O)OCC(=O)c1cc(OC)ccc1OC | 6% | 11% | 4.3% | -13
O=C(NCCO)c1c(-c2ccc3c(c2)OCO3)noc1-c1ccsc1 | · | -5% | -0.8% | ·
Fc1ccc(CSc2nc3ccccc3[nH]2)c2ccccc12 | -15% | -9% | 1.2% | -1
CN(C)c1ccc(C(=O)Nc2nnc(-c3ccc(Cl)cc3)o2)cc1 | -1% | 8% | -2.6% | 6
Cc1cc(CCN2CCC(=O)NC2=O)ccc1OC(C)C | -20% | 14% | -4.1% | 9
Cc1c(Br)c([N+](=O)[O-])nn1CC(=O)NCc1cccs1 | -12% | -12% | 1.2% | 5
Cc1cccc(-c2nnc(SCC#N)n2Cc2ccccc2)c1 | -3% | 15% | 3.3% | 1
Cc1ccc(C(=O)NCCNS(C)(=O)=O)cc1 | -13% | 2% | 0.0% | 13
O=c1cc(Cl)nc2ccccn12 | · | -3% | 3.0% | ·
COc1cc(OC)cc(C(=O)Nc2ccc(-c3nc4ccccc4o3)c(O)c2)c1 | -32% | 16% | -0.5% | 9
CC(C)(C)C(=O)Nc1ccc(-c2cnco2)cc1 | -54% | -17% | -0.3% | -10
COc1cc(NC(=O)C2CCCN2S(=O)(=O)c2cccc3cccnc23)cc(OC)c1OC (stereo unspecified) | -21% | 25% | -2.5% | -12
COc1ccc(NC(=O)COC(=O)/C=C/c2cccs2)c(OC)c1 | · | -2% | -0.4% | ·
COc1cccc(NC(=O)CN2CCC(C)CC2)c1 | -25% | -11% | 2.0% | 2
COCCSc1ccccc1C(=O)N1CCN(c2ccccc2OC)CC1 | 5% | 12% | 2.2% | -1
COc1ccccc1/C=C1\SC(=S)N(CCC(=O)NNC(=O)c2ccccc2O)C1=O | 2% | -6% | -0.1% | ·
O=C(Nc1cccc(S(=O)(=O)NC2=NCCC2)c1)c1cn(-c2ccccc2)nc1-c1ccc(F)cc1 | · | 11% | 0.0% | ·
COc1cccc(NC2=CC(=O)CC(C)(C)C2)c1 | -3% | -1% | ? | -7
Cc1ccc(NC(=O)CSCC(=O)Nc2sccc2C#N)cc1 | · | 1% | -3.4% | ·
Further results follow:
SMILES | miR-21 FLuc | Rango dissoc inh | Rango complex inh | GLA inh pH 4.5
CCCOC(=O)C1[C@H]2C(=O)N(Cc3ccco3)C[C@]23C=C[C@H]1O3 (stereo partly specified) | -1% | -8% | 0.2% | 6
COc1cc(C(=O)Nc2ccc(C(=O)c3cccs3)cc2)cc(OC)c1OC | 10% | 29% | -1.9% | ·
Cc1c(C)n(C(=O)CN2CCC(C)CC2)c2ccccc12 | -1% | 3% | 0.2% | -9
O=Cc1c(N2CCN(CCO)CC2)nc2ccccn2c1=O | -2% | ? | ? | ·
Cc1ccc(C(=O)NN2C(=O)c3ccc(S(=O)(=O)c4ccc(C(=O)O)cc4)cc3C2=O)cc1 | -43% | -6% | 4.8% | -8
COc1cc(OC)cc(-c2c(-c3cccs3)c3cc(-c4ccc5c(c4)OCCO5)ccc3n2C)c1 | · | -27% | -0.3% | ·
Cc1cc(OCCn2ccnc2)cc(C)c1Cl | -9% | 7% | 5.4% | ·
Cc1cc(C)c(C#N)c(SCC(=O)C(C)(C)C)n1 | -29% | -12% | -1.8% | -5
Cc1nnsc1C(=O)NNc1ccc(C(C)(C)C)cc1 | 1% | -7% | -0.3% | 3
COc1ccc(CN2CCN(C(=O)c3ccc4c(c3)CCC4)CC2)cc1OC | · | -1% | -1.1% | ·
COc1ccc(NC(=O)CN(C)S(=O)(=O)c2ccc(C)cc2)c([N+](=O)[O-])c1 | 0% | ? | ? | 3
COC(=O)CSC1=C(C#N)C(c2cccc(F)c2)CC(=O)N1 (stereo unspecified) | 18% | 5% | -2.5% | 2
Cc1ccc(Nc2ncccc2C(=O)NCc2cccs2)c(C)c1 | -11% | 0% | 2.6% | -6
Cc1nc2cc(NC(=O)Nc3cccc([N+](=O)[O-])c3)ccc2n1C | -58% | 1% | 3.0% | ·
CC1CCCCC12NC(=O)N(CC(=O)N1CCN(C(=O)c3ccco3)CC1)C2=O (stereo unspecified) | · | -1% | 4.4% | ·
CC1(C(=O)NCCCNc2ncc(C(F)(F)F)cc2Cl)C=CCN1C(=O)c1ccccc1 (stereo unspecified) | -36% | -20% | -1.7% | -4
CC1(c2cccc(Br)c2)NC(=O)N(CC(=O)N2CCN(C(=O)c3ccco3)CC2)C1=O (stereo unspecified) | · | 7% | -3.4% | ·
CCN(CC)S(=O)(=O)c1ccc(N(C)Cc2cccnc2)nc1 | 0% | 2% | 1.3% | 1
Cc1ccc(-c2nn3cnnc3c3ccccc23)cc1C | -13% | 5% | 3.6% | 10
Cc1ccsc1C(=O)OCC(=O)NC1CCCCC1C (stereo unspecified) | · | -4% | -1.6% | ·
COc1ccccc1CN1CCN(Cc2nc(Cc3ccccc3)no2)CC1 | -3% | 6% | 0.1% | 6
COC(=O)Nc1nnc(/C=C/c2ccc(OC)cc2)s1 | -70% | ? | -3.8% | 1
Cc1oc(/N=C/c2ccc(Cl)cc2Cl)c(C#N)c1C | 1% | -11% | ? | 7
CCOc1ccc(CC(=O)Nc2ccc(NC(=O)c3ccco3)cc2)cc1OCC | ? | -7% | -1.4% | 5
C=CCNCC(=O)Nc1sc2c(c1C(=O)Nc1ccc(OC)cc1OC)CCC2 | -3% | 0% | -0.3% | -2
Cc1nnc(SCc2ccccc2)nc1-c1ccccc1 | · | 8% | 1.9% | ·
COc1ccc2oc(C(=O)OCC(=O)NC3CC3)c(C)c2c1 | -7% | -16% | -2.6% | ·
C1CCC(n2nnnc2CN2CCCC2)CC1 | -1% | 23% | ? | 14

Compound profiles, as listed above. Order of screens: miR-21 FLuc | Rango dissoc inh | Rango complex inh | GLA inh pH 4.5
Listed for `Cc1nnc(SCc2ccccc2)nc1-c1ccccc1` = · | 8% | 1.9% | ·
Listed for `C=CCNCC(=O)Nc1sc2c(c1C(=O)Nc1ccc(OC)cc1OC)CCC2` = -3% | 0% | -0.3% | -2
Listed for `COc1ccc2oc(C(=O)OCC(=O)NC3CC3)c(C)c2c1` = -7% | -16% | -2.6% | ·
Listed for `C1CCC(n2nnnc2CN2CCCC2)CC1` = -1% | 23% | ? | 14
Listed for `CCN(CC)S(=O)(=O)c1ccc(N(C)Cc2cccnc2)nc1` = 0% | 2% | 1.3% | 1

Screening data (PubChem)

A portion of the library. The share of hits here may be higher or lower than overall.
